Rango-impB inh – Rango-importin beta binding inhibition; hit rate 0.031% among 340,000; Rango CFP/YFP FRET sensor + importin beta, 45 min; AID 540263; Q14974; Potency, µM (top dose mostly 92.2 µM), without a hit: top-dose inhibition of complex formation; active = rising FRET ratio curve, often small or poorly fitted; inconclusive = mostly compound fluorescence or quenching in the first reads; inactive = flat curves in all reads;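 further: potency means the concentration at half of the fitted maximal effect; 0% = DMSO wells and 100% = buffer wells lacking importin beta; nearly all actives have a fitted effect of over 15% in size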
Target sequence (Q14974 whole entry, looked up): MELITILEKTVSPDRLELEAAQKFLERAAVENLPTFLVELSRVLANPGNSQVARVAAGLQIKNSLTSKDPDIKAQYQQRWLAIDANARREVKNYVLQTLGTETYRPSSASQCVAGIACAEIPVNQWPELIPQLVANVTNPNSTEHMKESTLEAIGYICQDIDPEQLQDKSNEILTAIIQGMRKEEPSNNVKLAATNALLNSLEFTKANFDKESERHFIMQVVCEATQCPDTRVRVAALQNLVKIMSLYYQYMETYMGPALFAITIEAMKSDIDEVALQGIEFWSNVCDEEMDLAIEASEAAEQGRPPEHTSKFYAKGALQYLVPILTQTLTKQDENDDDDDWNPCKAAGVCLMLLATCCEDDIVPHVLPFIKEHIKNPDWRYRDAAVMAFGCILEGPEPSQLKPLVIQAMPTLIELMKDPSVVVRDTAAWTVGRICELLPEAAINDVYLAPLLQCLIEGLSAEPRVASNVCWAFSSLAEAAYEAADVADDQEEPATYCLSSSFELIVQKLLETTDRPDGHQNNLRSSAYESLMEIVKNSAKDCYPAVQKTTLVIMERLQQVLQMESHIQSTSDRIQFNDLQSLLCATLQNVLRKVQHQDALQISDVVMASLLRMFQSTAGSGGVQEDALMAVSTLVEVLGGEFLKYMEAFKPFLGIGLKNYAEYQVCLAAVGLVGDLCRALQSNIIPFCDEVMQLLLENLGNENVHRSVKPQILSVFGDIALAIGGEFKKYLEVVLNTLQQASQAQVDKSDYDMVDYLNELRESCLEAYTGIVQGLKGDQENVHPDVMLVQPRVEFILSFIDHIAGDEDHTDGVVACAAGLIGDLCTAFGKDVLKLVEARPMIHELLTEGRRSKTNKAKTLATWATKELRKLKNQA
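FRET biosensor (snurportin 1 IBB flanked by EYFP and cerulean), 50 nM, with compound 5 min, then 0.125 microM importin beta in PBS, 1 mM DTT, 0.02% Tween-20, 0.1% BSA. CFP/YFP ratio read after 45 min at room temperature; pre-read flags interference.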
GLA inh pH 4.5 – alpha-galactosidase A (human) inhibition, pH 4.5. P06280. purified enzyme, 4-MU-alpha-Gal fluorescence, pH 4.5. activity change, negative = inhibition, % at 105 µM. 230,000 tested, under 10 active. AID 1467; inconclusive = small, poorly fitted or top-dose-only inhibition, or a rising curve; inactive = flat fitted curve, though single readings scatter; no compound was filed as active;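 further: 0% = full activity with enzyme and -100% = basal without enzyme; dose as in the result columns while the protocol names 77 µM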
miR-21 reporter – raises the signal of a miR-21 reporter | HeLa miR-21 FLuc reporter, luciferase, 48 h | Potency, µM (titrated, usually from 38.3 µM), inactives show at the top dose reporter change, positive = more light | 340,000 tested, under 10 active; active = well fitted rising curve with a large enough effect; inconclusive = small, poorly fitted or top-dose-only effect; inactive = no such curve, though single readings can be large or run the other way;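 further: % of control where 0% means no effect; miR-21 action dims this reporter so a rising signal means less miR-21 action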
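HeLa miR-21-FLuc reporter line, endogenous miR-21; 2000 cells/well in DMEM/10% FBS; compound titration up to ~40uM final, 48 h, 37 degree Celsius; luciferase detection reagent, 15 min lysis, CCD luminescence.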
Rango dissoc inh – prevents RanGTP from dissociating the Rango-importin beta complex | hit rate 0.071% among 340,000 | O95149+P62826 | Biochemical FRET Rango-importin beta, RanGTP-induced dissociation | Potency, µM (top dose mostly 46.1 µM), without a hit: top-dose activity change, negative = inhibition; active means falling FRET ratio curve, often poorly fitted, with flat reads before Ran was added; inconclusive means other falling curves, or compound fluorescence or quenching; inactive means flat or rising ratio curve;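 further: potency means the concentration at half of the fitted maximal effect; % of control where 0% means no effect; nearly all actives have a fitted effect of over 45% in size; -100% = wells without RanGTP and RCC1; the record marks most hits as doubtful in a second field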
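Recombinant Rango FRET biosensor (EYFP–snurportin 1 IBB–cerulean CFP10) at 0.1 uM premixed with 0.25 uM importin beta in PBS, 1 mM DTT, 0.02% Tween-20, 0.1% BSA. Compound added 5 min; RanGTP-RCC1 (0.6 uM Ran, 2 mM GTP, 0.2 uM RCC1) then triggers release, read at 45 min.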
Numbers without * were called inactive; [ ] = another dose, or the depositor's remark. Only part of the results is shown (hit frequency here may not be typical).

Screening COc1ccc(C(=O)Oc2ccc3c(C)cc(=O)oc3c2C(C)=O)cc1 returned Rango-impB inh -2.1%, miR-21 reporter 1% and Rango dissoc inh -5%.
Screening O=C1CN(c2nc(-c3ccccc3)c3ccccc3n2)c2ccccc2N1 returned Rango-impB inh inconclusive, GLA inh pH 4.5 4, miR-21 reporter -10% and Rango dissoc inh inconclusive.
For COCCN(C(=O)C1CC1)c1nnc(-c2cccc(C)c2)s1 the results were Rango-impB inh inconclusive, GLA inh pH 4.5 3, miR-21 reporter -35% and Rango dissoc inh -2%.
For O=C(CCc1ccccc1)NNC(=O)C1CCCCC1 the results were Rango-impB inh 7.5%, GLA inh pH 4.5 1, miR-21 reporter -5% and Rango dissoc inh 10%.
For O=S(=O)(NCc1csc(-c2cccs2)n1)c1ccccc1 the results were Rango-impB inh inconclusive, GLA inh pH 4.5 1, miR-21 reporter -17% and Rango dissoc inh -20%.
Cc1ccc(Oc2ncccc2/C=N/OCc2ccc(Cl)cc2Cl)cc1 was read as Rango-impB inh -4.1%, GLA inh pH 4.5 0, miR-21 reporter -2% and Rango dissoc inh -20%.
CCNC(=S)Nc1nc2c(cc1C(=O)OCC)CCCC2 was read as Rango-impB inh 0.1%, GLA inh pH 4.5 7, miR-21 reporter -15% and Rango dissoc inh 14%.
COc1ccc(C(=O)Nc2cnn(Cc3ccc(Cl)cc3)c2)cc1OC was read as Rango-impB inh 3.9%, GLA inh pH 4.5 3, miR-21 reporter 10% and Rango dissoc inh 20%.
C=CCn1c(COC)nnc1SCC(=O)c1ccc(F)cc1 was read as Rango-impB inh 2.4%, GLA inh pH 4.5 10, miR-21 reporter -23% and Rango dissoc inh 0%.
`O=C(CCc1nc2ccccc2c(=O)[nH]1)NNC(=O)COc1ccc(Br)cc1` gave Rango-impB inh -0.6% and Rango dissoc inh -8%.
`O=c1ccnc(Sc2ncccc2[N+](=O)[O-])[nH]1` gave Rango-impB inh 3.7%, GLA inh pH 4.5 -6, miR-21 reporter -1% and Rango dissoc inh 27%.
COc1ccc(Br)cc1/C=N/N1CCN(Cc2ccccc2Cl)CC1 was read as Rango-impB inh 2.3%, miR-21 reporter -2% and Rango dissoc inh -5%.
Cc1ccc(C(c2nnnn2CCc2ccccc2)N2CCSCC2)cc1 (stereo unspecified) was read as Rango-impB inh -2.3%, GLA inh pH 4.5 -15, miR-21 reporter 14% and Rango dissoc inh 7%.
Screening Cc1nn(-c2nnc(NC3CCCCC3)nn2)c(C)c1Br returned Rango-impB inh 6.5%, GLA inh pH 4.5 -3, miR-21 reporter -57% and Rango dissoc inh 4%.
`CCOC(=O)Cc1cnc(NC(=O)CSc2nc3ncnc(N)c3[nH]2)s1` gave Rango-impB inh -0.5%, GLA inh pH 4.5 5, miR-21 reporter 0% and Rango dissoc inh 0%.

2 compounds drawn at random from the list so far, as already listed:
COc1ccc(Br)cc1/C=N/N1CCN(Cc2ccccc2Cl)CC1 was read as Rango-impB inh 2.3%, miR-21 reporter -2% and Rango dissoc inh -5%.
C=CCn1c(COC)nnc1SCC(=O)c1ccc(F)cc1 was read as Rango-impB inh 2.4%, GLA inh pH 4.5 10, miR-21 reporter -23% and Rango dissoc inh 0%.

(cont.)
For COC1=C(Nc2ccc(OC)cc2)C(=O)C(OC)=C(Nc2ccc(OC)cc2)C1=O the results were Rango-impB inh 1.1% and Rango dissoc inh 14%.
For CCCCCCCCCOC(=O)C1N2C(=O)[C@@H](NC(=O)COc3ccccc3)[C@H]2SC1(C)C (stereo partly specified) the results were Rango-impB inh inconclusive and Rango dissoc inh 11%.
For CCOC(=O)Cc1csc(SCC(=O)Nc2cccc(C#N)c2)n1 the results were Rango-impB inh -4.8%, GLA inh pH 4.5 -3, miR-21 reporter -15% and Rango dissoc inh -11%.
For COc1ccc(CCNC(=O)c2coc3ccccc3c2=O)cc1OC the results were Rango-impB inh inconclusive, miR-21 reporter -2% and Rango dissoc inh inconclusive.
For CC(=Nc1ccccc1)C1=C(O)CC(C)(C)CC1=O the results were Rango-impB inh -3.4%, GLA inh pH 4.5 -9, miR-21 reporter -2% and Rango dissoc inh 12%.
`COC(=O)c1cc(-c2ccccc2)sc1N` gave Rango-impB inh -1.8%, GLA inh pH 4.5 1, miR-21 reporter -43% and Rango dissoc inh inconclusive.
`CC(C)Oc1ccc(-c2cc(=O)[nH]c(=O)[nH]2)cc1` gave Rango-impB inh -3.9%, GLA inh pH 4.5 -11, miR-21 reporter -14% and Rango dissoc inh inconclusive.
COCCC(=O)N1CCC(Oc2ccc(C(=O)N(C)CCCC3CCCC3)cc2)CC1 was read as Rango-impB inh 0.3%, miR-21 reporter 2% and Rango dissoc inh -7%.
Screening O=C1CSC(c2cccc([N+](=O)[O-])c2)N1Cc1ccccc1 (stereo unspecified) returned Rango-impB inh -1.9%, miR-21 reporter -2% and Rango dissoc inh -7%.
`CC1(C)CC(=O)C/C(=N/NC(=O)COc2ccc(Cl)cc2Cl)C1` gave Rango-impB inh -0.7%, GLA inh pH 4.5 -3, miR-21 reporter -1% and Rango dissoc inh -22%.
For CC(C)NC(=O)c1ccc(CS(=O)(=O)c2ccc(Br)cc2)o1 the results were Rango-impB inh -1.0%, GLA inh pH 4.5 -9, miR-21 reporter -5% and Rango dissoc inh 0%.
`Cc1ccc(C)c(NC(=O)CCN2CCCC(C)C2)c1` (stereo unspecified) gave Rango-impB inh 1.3%, miR-21 reporter 1% and Rango dissoc inh -17%.
O=C1CC(c2cccc(Cl)c2)c2cc3c(cc2N1)CCC3 (stereo unspecified) was read as Rango-impB inh -9.3%, GLA inh pH 4.5 0, miR-21 reporter 22% and Rango dissoc inh -10%.
Screening Cc1nc2cc(OCc3cc(C(=O)NC(C)c4cn(C)nc4C)no3)ccc2s1 (stereo unspecified) returned Rango-impB inh -1.2%, miR-21 reporter -6% and Rango dissoc inh 0%.
`Cc1ccc(/C=N/n2c(C)cc(C)c(C#N)c2=O)cc1` gave Rango-impB inh 0.5%, GLA inh pH 4.5 0, miR-21 reporter -23% and Rango dissoc inh -15%.

Compounds shown so far that have a cyano group (2):
For CCOC(=O)Cc1csc(SCC(=O)Nc2cccc(C#N)c2)n1 the results were Rango-impB inh -4.8%, GLA inh pH 4.5 -3, miR-21 reporter -15% and Rango dissoc inh -11%.
`Cc1ccc(/C=N/n2c(C)cc(C)c(C#N)c2=O)cc1` gave Rango-impB inh 0.5%, GLA inh pH 4.5 0, miR-21 reporter -23% and Rango dissoc inh -15%.

(next part)
For CCOC(=O)C(=O)N1CCC(C(=O)OCC)CC1 the results were Rango-impB inh 0.0%, GLA inh pH 4.5 2, miR-21 reporter -15% and Rango dissoc inh -1%.
For COc1ccc(C(=O)Nc2ncc3c(n2)-c2ccccc2CC3)cc1 the results were Rango-impB inh -4.6%, GLA inh pH 4.5 2, miR-21 reporter 0% and Rango dissoc inh 5%.
For Cc1nc2ccccc2n1C1CCN(CC(=O)Nc2ccccc2Br)CC1 the results were Rango-impB inh 0.8%, GLA inh pH 4.5 3, miR-21 reporter 2% and Rango dissoc inh -5%.
CCS(=O)(=O)N1CCC(C(=O)Oc2ccc(C(=O)OC)cc2)CC1 was read as Rango-impB inh -1.4%, miR-21 reporter 1% and Rango dissoc inh -14%.
Screening Cc1ccc(NC(=O)CSc2ccc3nnc(-c4ccccn4)n3n2)cc1 returned Rango-impB inh 0.4%, miR-21 reporter -4% and Rango dissoc inh -14%.
Screening O=C(N/N=C/c1ccc2c(c1)OCO2)c1cccc2ccccc12 returned Rango-impB inh -0.1%, miR-21 reporter 7% and Rango dissoc inh -11%.
Screening C(=N\N(Cc1ccccc1)c1ccccc1)/c1cccnc1 returned Rango-impB inh 3.1%, GLA inh pH 4.5 -3[21.1 µM], miR-21 reporter 3% and Rango dissoc inh -15%.
For CCOc1ccc(N(CC(=O)NCc2ccco2)C(=O)CCC(=O)Nc2ccccn2)cc1 the results were Rango-impB inh 1.9%, miR-21 reporter 4% and Rango dissoc inh 34%.
COc1ccc(CNC(=O)c2ccc3c(=O)n(-c4ccccc4)c(=O)[nH]c3c2)cc1 was read as Rango-impB inh -4.1%, miR-21 reporter 13% and Rango dissoc inh 3%.
`O=C(NCCC1=CCCCC1)C1CCCN(S(=O)(=O)c2ccc(F)cc2)C1` (stereo unspecified) gave Rango-impB inh 0.5%, GLA inh pH 4.5 -9, miR-21 reporter -7% and Rango dissoc inh 1%.
Screening O=C(NCc1ccc(F)cc1)C(=O)Nc1nc(C23CC4CC(CC(C4)C2)C3)cs1 returned Rango-impB inh -4.9%, GLA inh pH 4.5 3, miR-21 reporter -8% and Rango dissoc inh 6%.
`O=c1[nH][nH]c2ccccc2c1=O` gave Rango-impB inh 0.1%, GLA inh pH 4.5 -2, miR-21 reporter -13% and Rango dissoc inh 0%.
Screening COc1ccc(CSCC(=O)Nc2ccc(S(=O)(=O)N3CCCCCC3)cc2)cc1 returned Rango-impB inh -3.1%, GLA inh pH 4.5 -7, miR-21 reporter -2% and Rango dissoc inh 0%.
Screening CCN1CCN(c2ncnc3c2sc2nc(N4CCOCC4)c4c(c23)CCC4)CC1 returned Rango-impB inh 0.1%, GLA inh pH 4.5 -2, miR-21 reporter -23% and Rango dissoc inh -4%.
For CC(C)c1c(O)nc(SCC(=O)N2CCCCC2)[nH]c1=O the results were Rango-impB inh -3.3%, miR-21 reporter 0% and Rango dissoc inh 5%.
COc1ccc(CC(=O)N(Cc2ccccc2)c2ccc(C)cc2)cc1S(=O)(=O)N1CCOCC1 was read as Rango-impB inh 0.3% and Rango dissoc inh -2%.
`CCC(CC)C(=O)c1c[nH]c(C(=O)NCc2ccccc2OC)c1` gave Rango-impB inh -1.9%, miR-21 reporter -4% and Rango dissoc inh 2%.
For CCC(=O)Nc1cccc(NC(=O)c2ccc(Br)cc2)c1 the results were Rango-impB inh 3.1%, GLA inh pH 4.5 5, miR-21 reporter -21% and Rango dissoc inh -20%.
Screening CCCCCc1nnc(NC(=O)c2cccc(S(=O)(=O)N3CCOCC3)c2)s1 returned Rango-impB inh 2.5% and Rango dissoc inh 12%.
Screening C=CCOC(=O)c1ccccc1C(=O)OCC=C returned Rango-impB inh -0.7% and Rango dissoc inh 2%.
For CC1CCN(S(=O)(=O)c2ccc(C(=O)OCc3ccc4c(c3)OCO4)cc2)CC1 the results were Rango-impB inh -4.3%, GLA inh pH 4.5 8, miR-21 reporter -3% and Rango dissoc inh 18%.
For COC(=O)c1ccccc1N=Nc1c(N)[nH][nH]c1=O the results were Rango-impB inh 2.6%, GLA inh pH 4.5 -5, miR-21 reporter -26% and Rango dissoc inh -1%.
`Cc1cc(-c2ccccc2C(=O)NC2CCCCC2)on1` gave Rango-impB inh inconclusive, GLA inh pH 4.5 2, miR-21 reporter 0% and Rango dissoc inh -5%.
Cn1cccc1C(=O)OCC(=O)NC1CCS(=O)(=O)C1 (stereo unspecified) was read as Rango-impB inh 1.5%, GLA inh pH 4.5 12, miR-21 reporter 3% and Rango dissoc inh 62%.
Nc1ncnc2c1ncn2[C@@H]1O[C@H](CN2CCCS2(=O)=O)[C@@H](O)[C@H]1O was read as Rango-impB inh 0.6% and Rango dissoc inh -12%.
Cc1cccc(NCc2ccc(N(C)C)cc2)n1 was read as Rango-impB inh -3.7%, miR-21 reporter -54% and Rango dissoc inh 39%.
Screening CCOc1ccc(NC2=C(OC)C(=O)c3ccccc3C2=O)cc1 returned Rango-impB inh 2.1%, GLA inh pH 4.5 -5, miR-21 reporter -30% and Rango dissoc inh -12%.
For O=P(c1ccccc1)(c1ccccc1)C(c1ccccn1)P(=O)(c1ccccc1)c1ccccc1 the results were Rango-impB inh -0.1%, GLA inh pH 4.5 -1, miR-21 reporter -2% and Rango dissoc inh 6%.
COc1cccc(C2C(C(=O)c3ccco3)=C(O)C(=O)N2CCCN2CCOCC2)c1OC (stereo unspecified) was read as Rango-impB inh 2.3% and Rango dissoc inh 13%.
`CC1(C)CC(=O)C2=C(C1)Nc1ccccc1NC2c1ccc(F)cc1` (stereo unspecified) gave Rango-impB inh 0.2%, miR-21 reporter -2% and Rango dissoc inh 1%.

High-throughput results (PubChem)
